# Source: PubChem BioAssay (National Center for Advancing Translational Sciences (NCATS))
# VDR inh = Inhibitors of the vitamin D receptor (VDR): qHTS | Potency, µM, for the others: max response, negative = inhibition, actives largely listed as inhibitors | 400,000 compounds, 0.93% hits | AID 504847, 2011 | Vitamin D3 receptor (Homo sapiens), P11473 | VDR-SRC2-3 peptide fluorescence polarization, 2 h; active = well fitted inhibition curve with a large enough effect; inconclusive = small, poorly fitted or top-dose-only effect, or another doubt; inactive = no such curve, though single readings can be large or run the other way; note: series mostly up to about 120 µM
# Target sequence (P11473 whole entry, looked up): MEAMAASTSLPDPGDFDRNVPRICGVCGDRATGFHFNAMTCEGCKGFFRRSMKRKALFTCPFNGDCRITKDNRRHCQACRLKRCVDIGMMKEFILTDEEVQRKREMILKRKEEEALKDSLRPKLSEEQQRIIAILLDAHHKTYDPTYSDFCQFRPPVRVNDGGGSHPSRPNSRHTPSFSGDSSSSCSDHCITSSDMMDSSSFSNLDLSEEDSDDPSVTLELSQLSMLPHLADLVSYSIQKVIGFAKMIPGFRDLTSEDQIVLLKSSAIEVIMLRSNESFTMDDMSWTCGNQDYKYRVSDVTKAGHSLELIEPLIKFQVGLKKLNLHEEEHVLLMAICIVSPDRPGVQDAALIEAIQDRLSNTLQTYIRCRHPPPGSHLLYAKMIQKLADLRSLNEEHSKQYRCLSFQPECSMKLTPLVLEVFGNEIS
#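 Inhibition of the VDR/SRC2-3 peptide interaction is quantified by fluorescence polarization. Compounds (23 nl, pintool) incubate with the reagents for 2 hours at ambient room temperature.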
# * hit, by the source's call; u = inconclusive; & = joins results of further samples; [ ] = another dose, or the depositor's remark. % is set by controls: 0 for no effect and ±100 for the full control effect; potency is the fitted concentration of half-maximal effect. Only part of the results is shown; count on the stated rates, not on these rows.
SMILES,VDR inh
CCCN(CC(=O)Nc1ccccc1C)C(=O)C1CC(=O)N(c2ccccc2C(C)CC)C1 (stereo not given),9.5%
CN(C(=O)CSc1nnc(-c2ccccc2)c(-c2ccccc2)n1)C1CCS(=O)(=O)C1 (stereo not given),-8.4%
O=C(NC1CCCN(CCc2ccccc2)C1)c1c[nH]c2ccccc12 (stereo not given),-0.3%
CCC1=NN(C(=O)c2cccc([N+](=O)[O-])c2)C(O)(c2ccc(C)cc2)C1 (stereo not given),-21.4%
Cc1ccc(C(=O)NC(=S)Nc2ccc(S(=O)(=O)N3CCN(C)CC3)cc2)cc1,-4.7%
C=CCn1c(=O)c2c(nc(Br)n2Cc2ccccc2Cl)n(C)c1=O,-3.5%
Cc1cc(C)c(OCC(=O)N(Cc2ccc(N(C)C)cc2)C2CCS(=O)(=O)C2)c(C)c1 (stereo not given),33.4%[activator]
O=C(CN(CC1CCCO1)S(=O)(=O)c1ccc(S(=O)(=O)NC2CC2)cc1)Nc1ccccc1 (stereo not given),6.1%
COc1cc(OC)c2c(c1)OC(=O)CC2c1cc(OC)c(OC)c(OC)c1 (stereo not given),1.4%&9.6%
CN(C)CCCNC1=CC(=O)CC(c2ccccc2)C1 (stereo not given),12.8%

# Exported bar-delimited: 7 of the compounds above
Compound | VDR inh
CN(C(=O)CSc1nnc(-c2ccccc2)c(-c2ccccc2)n1)C1CCS(=O)(=O)C1 (stereo not given) | -8.4%
O=C(NC1CCCN(CCc2ccccc2)C1)c1c[nH]c2ccccc12 (stereo not given) | -0.3%
CCC1=NN(C(=O)c2cccc([N+](=O)[O-])c2)C(O)(c2ccc(C)cc2)C1 (stereo not given) | -21.4%
Cc1ccc(C(=O)NC(=S)Nc2ccc(S(=O)(=O)N3CCN(C)CC3)cc2)cc1 | -4.7%
C=CCn1c(=O)c2c(nc(Br)n2Cc2ccccc2Cl)n(C)c1=O | -3.5%
Cc1cc(C)c(OCC(=O)N(Cc2ccc(N(C)C)cc2)C2CCS(=O)(=O)C2)c(C)c1 (stereo not given) | 33.4%[activator]
O=C(CN(CC1CCCO1)S(=O)(=O)c1ccc(S(=O)(=O)NC2CC2)cc1)Nc1ccccc1 (stereo not given) | 6.1%

# The listing continues.
SMILES,VDR inh
C/C(=N\NC(=O)CCc1c[nH]c2ccccc12)c1ccc([N+](=O)[O-])cc1,-9.0%
CCCc1nnc(NC(=O)CN2C(=O)C3C4C=CC(C4)C3C2=O)s1 (stereo not given),-6.4%
CCOc1ccccc1N1CCN(C(=O)NC(C)c2ccc(F)c(F)c2)CC1 (stereo not given),-4.0%
COC(=O)c1ccc(Nc2ccc3nonc3c2[N+](=O)[O-])cc1,2.2%
CCOC(=O)c1ccc(NC(=O)CCc2c(C)nc3ncnn3c2C)cc1,-9.3%
CCN(Cc1ccccc1)S(=O)(=O)c1ccc(OC)cc1,-16.3%
CNC(=O)c1cc2c(s1)CCCCCC2,3.8%
CCOc1ccc(OCC)c(NC(=O)CSCCc2ccccn2)c1,-8.6%
Cc1ccc2c(c1)C(=O)N1[C@H]3c4ccccc4OC[C@@H]3[C@H](c3ccccc3)[C@]1(C)C(=O)N2,-2.6%
O=C(O)c1sccc1Oc1ccc(F)cc1[N+](=O)[O-],2.6%
Cc1cc(=O)n2cc(-c3ccccc3)nc2[nH]1,15.6%
COc1ccc(-n2ncc3c(NCc4ccc5c(c4)OCO5)ncnc32)cc1,15.0%
CCCCCNC1=CC(=O)CC(c2ccccc2)C1 (stereo not given),10.9%
Cc1nn(CC(=O)NCc2ccco2)c(=O)c2nn(-c3ccccc3)c(C)c12,4.2%
CCc1ccc(CNC(=O)CCCn2nc(C)n3ccnc3c2=O)cc1,4.0%
Cc1c(Br)c([N+](=O)[O-])nn1CCCC(=O)Nc1c(C)n(C)n(-c2ccccc2)c1=O,-11.0%
S=C(NCc1ccccc1)Nc1nccs1,-11.1%
O=S(=O)(/N=C(/Nc1ccc(Cl)cc1Cl)c1ccccc1)c1cccs1,-4.2%
Cc1ccc(N=C/C(C(=O)C(F)(F)F)=C(\O)c2ccco2)cc1Cl,-34.3%
CCCCC(=O)Nc1nc2ccc3nc(C)sc3c2s1,3.8%
O=C(NCCC1=CCCCC1)C1CCN(S(=O)(=O)c2cccc3nonc23)CC1,2.0%
COc1ccc(N2CC(NC(=O)NCC(C)C)CC2=O)cc1 (stereo not given),-9.5%
Cc1ccc(NC(=O)C2CCN(c3cnccn3)CC2)cc1C,-8.2%
CC(=O)CCc1ccc(OCC(O)CNC2CCCc3ccccc32)cc1 (stereo not given),-16.9%
Cc1ccc(OCc2nc(-c3cccnc3)no2)cc1C,11.3%
Cc1onc(-c2ccccc2Cl)c1C(=O)N1CCCCC1C (stereo not given),-29.7%
O=C(NCc1ccccn1)c1ccc(Cl)c(S(=O)(=O)Nc2ccccc2C(=O)NCc2ccccn2)c1,-6.2%
COc1cc(/C=C2\C(=O)ON=C2c2ccc(Cl)cc2)ccc1O,u
Cc1cc(C)n2nc(C(=O)OCC(=O)N3CC(C)CC(C)C3)nc2n1 (stereo not given),-12.7%
COc1ccc(OC)c(/C=N/NC(=O)c2cccc3ccccc23)c1,15.3%

# Filtered by structure: the compounds so far containing two or more sulfur atoms
SMILES,VDR inh
CN(C(=O)CSc1nnc(-c2ccccc2)c(-c2ccccc2)n1)C1CCS(=O)(=O)C1 (stereo not given),-8.4%
Cc1ccc(C(=O)NC(=S)Nc2ccc(S(=O)(=O)N3CCN(C)CC3)cc2)cc1,-4.7%
O=C(CN(CC1CCCO1)S(=O)(=O)c1ccc(S(=O)(=O)NC2CC2)cc1)Nc1ccccc1 (stereo not given),6.1%
S=C(NCc1ccccc1)Nc1nccs1,-11.1%
O=S(=O)(/N=C(/Nc1ccc(Cl)cc1Cl)c1ccccc1)c1cccs1,-4.2%
CCCCC(=O)Nc1nc2ccc3nc(C)sc3c2s1,3.8%

# (cont.)
SMILES,VDR inh
O=C(COc1ccccc1)N/N=C/c1ccc([N+](=O)[O-])o1,-4.4%
COc1ccc(Cl)cc1NC(=O)C12CCC(C)(C(=O)O1)C2(C)C (stereo not given),-40.2%
Cc1onc(-c2ccccc2Cl)c1C(=O)NCc1ccccc1F,5.5%
O=C(NCc1ccc(N2CCCC2=O)cc1)Nc1cccc(Cl)c1,0.6%
CCc1ccc(-n2c(=O)c3ccccc3n(CC(=O)NCCc3ccc(OC)c(OC)c3)c2=O)cc1,6.3%
Cc1nc2sc(C(c3cccc(F)c3)N3CCCCC3)c(O)n2n1 (stereo not given),1.7%
C=C[C@@H]1c2cccc(C)c2N(S(=O)(=O)c2ccc(C)cc2)[C@H](c2ccc(OC(C)=O)cc2)C1(C#N)C#N,7.0%
Cc1oc(C)c2c(=O)cc(-c3ccc4c(c3)OCO4)cc(OC(=O)c3cccc(Cl)c3)c12,-0.5%
O=C(C[C@H]1C/C=C\C[C@@H](NC(=O)OCC2c3ccccc3-c3ccccc32)C(=O)O[C@@H](c2ccccc2)CNC1=O)N[C@H](CO)Cc1ccccc1,-3.9%
Cc1ccc(S(=O)(=O)NC(=O)Nc2cccc(S(=O)(=O)N(C)C)c2)cc1,-2.1%
CCCCCCCNC(=O)C1(CC2CC(c3ccc(Cl)cc3)=NO2)CCN(C(=O)CCCCCBr)CC1 (stereo not given),-18.0%
Cc1cccc(Cn2c(SCc3ccc(C(=O)NCc4ccccc4)cc3)nc3cccnc32)c1,19.0%
N#CCCN1CCN(C(=O)c2c(N)no[n+]2[O-])CC1,-10.1%
CCOC(=O)Nc1sc2c(c1C(N)=O)CCC(C)C2 (stereo not given),7.5%
CS(=O)(=O)N(CCc1ccccc1)CC(=O)N1CCCCC1,-0.2%
O=C(O)c1ccc(/C=N/N2CCN(Cc3ccccc3)CC2)cc1,-1.3%
Fc1ccc(C2=Nn3c(nnc3-c3ccco3)SC2)cc1,-7.9%
O=C(Nc1cc2c(cc1Cl)OCCCO2)c1ccco1,-5.9%
Cc1cc(C)c(S(=O)(=O)Nc2ccccc2-c2ccccc2)c(C)c1,-4.2%
COc1ccc(-n2c(CNc3ccc(C)cc3)nnc2SCC(=O)Nc2nc(-c3ccccc3)cs2)cc1,10.3%
Cc1ccccc1S(=O)(=O)Cc1ccc(C(=O)NCCCN2CCCC2)o1,-16.8%
O=C(O)CCCC(=O)N1CC(=O)Nc2ccccc21,0.3%
S=C(NCCN1CCOCC1)Nc1cccc2ccccc12,3.7%
O=C(CNC(=O)/C(=C/c1ccccc1)NC(=O)c1ccc(Br)cc1)OCc1ccccc1,7.2%
O=C(N1CCOCC1)N1CCCN(C(=O)N2CCOCC2)CC1,-6.0%
COC(=O)CC(N)c1ccc(Br)cc1 (stereo not given),-3.3%
CCS(=O)(=O)N1CCN(c2ccccc2F)CC1,0.5%
COc1cccc(N2CC(NS(=O)(=O)c3cccnc3)CC2=O)c1 (stereo not given),21.6%
CCC1CCCCN1C(=O)c1ccc(OC)c(OC2CCN(C(C)C)CC2)c1 (stereo not given),2.3%
O=C(CSCc1c(F)cccc1Cl)NNC(=S)NC1CCCCC1,-11.5%
S=C(NN=Cc1ccc2c(c1)OCO2)NN=Cc1ccc2c(c1)OCO2,u
CCCCn1c(=O)c2oc3ccccc3c2n(CC(=O)Nc2cccc(Cl)c2C)c1=O,-2.2%
CCCOc1ccc(/C=C/C(=O)NC2CCCCC2)cc1,-3.3%
Cc1c(OCC(=O)NCCCN2CCOCC2)ccc2c3c(c(=O)oc12)CCCC3,-14.9%
CCCCn1c(N)c(N(CC(C)C)C(=O)COc2cc(C)ccc2Cl)c(=O)[nH]c1=O,-5.9%
O=C(Cn1ncc2c3ccccc3n(Cc3cccc(Cl)c3)c2c1=O)Nc1ccc(F)cc1F,11.4%
C/C=C\C=C/C(=O)Nc1cccc(C2=NOC3(C2)C[C@H](C(N)=O)N(C(=O)Cc2ccc([N+](=O)[O-])cc2)C3)c1 (stereo not given in full),u
CC(=O)c1cccc(NC(=O)c2c(F)c(F)c(F)c(F)c2F)c1,8.5%
O=C(O)c1ccc(Nc2cc(Cl)c3nonc3c2[N+](=O)[O-])cc1,20µM*
CCN(CC)c1ccc(/C=N/NC(=O)Cc2ccc(OC)c(OC)c2)cc1,-4.3%

# Some values from the list:
# CCCOc1ccc(/C=C/C(=O)NC2CCCCC2)cc1 @ VDR inh = -3.3%
# CCCCn1c(N)c(N(CC(C)C)C(=O)COc2cc(C)ccc2Cl)c(=O)[nH]c1=O @ VDR inh = -5.9%

# The list continues:
SMILES,VDR inh
Cc1ccc(-c2nnc(Nc3ccc4c(c3)OCO4)c3ccccc23)cc1S(N)(=O)=O,9.9%
CCC(c1nnc(SCC(=O)Nc2nnc(-c3ccccc3)o2)n1Cc1ccccc1)N(C)C (stereo not given),-0.4%
Cc1ccc(NC(=O)c2ccc(Cl)c(N3C(=O)C=CC3=O)c2)cc1,17.8µM*
CC1=C(C(=O)OCc2ccc3c(c2)OCO3)C(c2ccc(F)cc2)NC(=O)N1 (stereo not given),-4.0%
CCN(CC)CCOc1ccc(/C(=C(\Cl)c2ccccc2)c2ccccc2)cc1,15.5%&-4.2%
O=C(CCc1ccncc1)N1CCCC(Nc2ccc(F)cc2)C1 (stereo not given),-9.4%
CCCCS(=O)(=O)N1CCN(S(=O)(=O)c2ccc(Cl)s2)CC1,5.4%
Cc1[nH][nH]c(=O)c1C(c1ccc(O)c([N+](=O)[O-])c1)c1c(C)[nH][nH]c1=O,4.0%
O=C(/C=C/c1cccs1)N1CCCCC1,11.1%
S=C1NCCOCCNC(=S)NCCOCCOCCOCCN1,-3.3%
COc1ccc(N2CCN(C3CC(=O)N(c4ccc5c(c4)OCCO5)C3=O)CC2)cc1 (stereo not given),-11.5%
COc1ccc(C(=O)Nc2ccc(-c3nc4ccccc4s3)c(Cl)c2)cc1Cl,5.7%
O=C(NCC1CC1)c1ccccc1Cl,12.6%
O=C(CCNC(=O)C1CCN(S(=O)(=O)c2ccccc2)CC1)NCc1cccc(C(F)(F)F)c1,-5.9%
COc1ccc(NC(=O)c2ccc(C(=O)c3cc(OC)ccc3OC)cc2)cc1,1.0%
C#CCOCCOCCOCCNc1nc(N2CCN(C(=O)C([C@@H](C)CC)n3cc(C(N)CO)nn3)CC2)nc(N2CCN(C(=O)[C@H](CCC(=O)O)n3cc(C(N)CC(C)C)nn3)CC2)n1 (stereo not given in full),-13.5%
CCCCCNC(=O)c1ccc2c(=O)n(CC3CCCO3)c(=O)[nH]c2c1 (stereo not given),10.2%
CC(NC(=O)CN1C(=O)NC(C)(C2CC2)C1=O)c1ccc(F)cc1 (stereo not given),-7.8%
Cc1cc(C)nc(SCNC(=O)c2ccc(Cl)cc2)n1,-2.0%
O=C(O)C[C@H]1c2ccccc2S(=O)(=O)N1c1ccccc1,2.3%

# Structures listed above printed as active in VDR inh:
SMILES,VDR inh
O=C(O)c1ccc(Nc2cc(Cl)c3nonc3c2[N+](=O)[O-])cc1,20µM*
Cc1ccc(NC(=O)c2ccc(Cl)c(N3C(=O)C=CC3=O)c2)cc1,17.8µM*
